From PubChem
fixLJ activator: activators of Burkholderia fixLJ two-component system | B. multivorans fixK-promoter GFP reporter, 18 h; active compounds read high | 29,000 compounds, 0.3% hits | z-score (test concentration not listed) | AID 1918990;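 active = replicate mean overnight rise in green fluorescent reporter signal, 3 or more SD over negative controls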;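 note: score is relative to vehicle wells of the plate; 300 nL library stock went into each well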
* marks the source's active call; other numbers are inactive results; & = joins results of further samples.

Compound | fixLJ activator
Cc1cccc(CN2C(=O)c3ccccc3S(=O)(=O)c3ccc(C(=O)NCCC4=CCCCC4)cc32)c1 | -0.5
Cc1ccn2c(Nc3ccccc3C)c(-c3ccc(N4CCOCC4)cc3)nc2c1 | 1.05
COc1cccc2c1cc1c(=O)n(CC(=O)NCc3ccc(N(C)C)cc3)nc(C)n12 | -1.22
NC(=O)CSc1oc(-c2cccs2)nc1S(=O)(=O)c1ccc(Br)cc1 | 2
Cc1cccc(-c2nc3ccccc3n2Cc2ccccc2)c1 | 0.99
Cc1ccc2c(CC(=O)NCc3ccccc3)coc2c1C | -0.74
COc1ccc(-c2nc(CSCC(=O)NCCC(C)C)c(C)o2)cc1OC | -1.15
Cc1oc2ccc(O)c(CN3CCN(C)CC3)c2c1C(=O)Nc1cccc(C(F)(F)F)c1 | -1.03
CCCCNC(=O)CSc1c2c(nc3ccc(Cl)cc13)CCCC2 | -1.2
CN(C)c1nc2c(c(N3CCC(O)CC3)n1)CN(C(=O)CCC1CC1)CC2 | -1.19
CCOC(=O)c1c(C)oc2ccc(N(C(=O)c3ccncc3)S(=O)(=O)c3ccc(CC)cc3)cc12 | 1.4
Cc1cc(Cl)ccc1-c1ccc(C(=O)NCCN2CCC(O)CC2)cc1 | -0.54
COc1ccc(CCNC(=O)c2ccc(Cn3c(=O)c4ccccc4n(Cc4ccc(C)cc4)c3=O)cc2)cc1OC | -1.71
O=C(c1ccccc1)n1nc(-c2ccco2)nc1NCc1ccccc1Cl | 0.02
Cc1nc(SCC(=O)NC2CCOCC2Oc2cccc(F)c2)n[nH]1 (configuration not stated) | -1.08
CCOC(=O)c1c(NC(=O)Cc2coc3cc(C)ccc23)sc2c1CCCC2 | -0.45
CCn1c(Cn2ccnc2)nnc1C1CCN(Cc2cccc(C)c2)CC1 | 0.41
COc1cccc2c1OCC(C(=O)Nc1nnc(SC(C)C)s1)C2 (configuration not stated) | -1.18
COc1ccc(C(=O)NCCn2cc(SCc3c(F)cccc3Cl)c3ccccc32)cc1 | 1.39
COC(=O)c1cc(NC(=O)Cn2ncc3c2-c2ccccc2OC3)cc(C(=O)OC)c1 | -2.6
CCCCOc1ccc(C(=O)Nc2cccc(-c3nc4ccccc4o3)c2C)cc1 | 0
COc1ccc(NC(=O)c2cn(-c3ccccc3)nc2-c2ccc(C)cc2)cc1 | 0.14
COc1ccc2c(C)c(CC(=O)NCc3ccc(C)cc3)c(=O)oc2c1OC | 1.23
Cc1ccc(S(=O)(=O)N(CC(=O)Nc2cccnc2)c2cc(Cl)ccc2C)cc1 | 0.02
O=C(c1ccc(C(F)(F)F)cc1)N1CCC(c2noc(-c3ccc(S(=O)(=O)N4CCCC4)cc3)n2)CC1 | -1.82
Cc1cccc(N2CCN(C(=O)CCCn3ncn4c(cc5occc54)c3=O)CC2)c1C | -3.48
Cc1cnccc1N1CCCN(Cc2cn[nH]c2C(=O)O)CC1 | 0.19
COc1cccc2c1C1(CCN(C(=O)c3nnc4n3CCCC4)CC1)OCC2 | 0.96
CCOC(=O)c1c(C)c(-c2ccccc2)n(CC(=O)NCCc2cccc(C)c2)c1C | -2.3
CCc1cc(N2CCN(CC(=O)NC(C)C)CC2)n2nc(C)c(C)c2n1 | 0.72
CC(C)c1ccc(C2CC(=O)N3CN(C4CCCCC4)CSC3=C2C#N)cc1 (configuration not stated) | -0.8
COC(=O)C(c1ccccc1)C1CCCCN1 (configuration not stated) | -1.08
Cn1c(=O)cc(SCC(=O)N2CCN(c3ccccc3F)CC2)c2ccc(Cl)cc21 | -0.8
CCN(C(=O)CSc1nc2ccccc2[nH]1)c1ccccc1 | -1.41
COc1cc2ccccc2cc1C(=O)Nc1cccc(-c2nc3cc(C)ccc3o2)c1C | -1.43
CCC(=O)N1CCc2cc(S(=O)(=O)NC(C(=O)NCCc3ccccc3)C(C)C)ccc21 (configuration not stated) | -0.11
COc1cc(OC)c(NC(=O)c2ccc3c(c2)N(Cc2ccc(C)cc2)CCS3)cc1Cl | -0.55
CCOc1cccc(C2Oc3nc(SC)nnc3-c3ccccc3N2C(C)=O)c1OC (configuration not stated) | -1.48
Cc1ccc(-c2nc(S(=O)(=O)c3ccc(C)cc3)c(N3CCCCC3)o2)cc1 | -0.31
CSCCC(NC(=O)C1CCCCC1)C(=O)Nc1ccc(F)c(Cl)c1 (configuration not stated) | -2.11
COc1cccc(-c2cc(C(=O)NCCc3ccc(OC)c(OC)c3)no2)c1 | 2.59
N#C/C(=C\c1ccc(-c2cccc(Cl)c2)o1)C(=O)Nc1cccc(C(F)(F)F)c1 | -3.3
CN1CCN(C2=Nc3cc(Cl)ccc3Nc3ccccc32)CC1 | -0.81&0.13
COc1ccccc1-c1nn(CCC(=O)Nc2cccc(C(C)=O)c2)c2nc(C)cc(C)c12 | -1.41
COc1ccc(NC(=O)C(NC(=O)/C=C\c2ccc3c(c2)OCO3)c2ccc(C)cc2)cc1 (configuration not stated) | 1.39
Cn1nc(C(=O)NCCc2nnc3n2CCNCC3)c2ccccc21 | 0.06
COc1ccc(C2(Nc3cccc(F)c3)C(=O)c3ccccc3C2=O)cc1 | -1.24
CCc1ccc2oc(C(=O)NCc3ccccc3)cc(=O)c2c1 | -0.24
COC(=O)c1c(NC(=O)c2cc3ccccc3c(=O)o2)sc2c1CCCC2 | -1.58
COc1ccc2c(C)c(CC(=O)NCc3ccccc3Cl)c(=O)oc2c1OC | -1.65
Cc1cc(NC(=O)c2ccc(NC(=O)CCS(=O)(=O)c3cccs3)cc2)ccc1Br | -0.92
COc1ccc(-c2cc(C(F)(F)F)n3nc(C(=O)Nc4cccc(Cl)c4Cl)cc3n2)cc1OC | -0.48
O=C(Cc1ccccc1)Nc1sc2c(c1C(=O)Nc1cccc(Cl)c1)CCCCC2 | 0.32
O=C(Cn1c(=O)c2cc(Cl)ccc2n2nncc12)Nc1ccccc1 | -1.2
OCCCCCNc1nccc(-c2cnn(-c3ccccc3)c2)n1 | -1.27
Cc1c(C(=O)N(Cc2ccc(N(C)C)cc2)Cc2ccco2)oc2cc(Br)ccc12 | -0.79
COc1cccc2cc(-c3nc(Cl)c4c5c(sc4n3)CC(C)CC5)c(=O)oc12 (configuration not stated) | -1.57
CCCc1cc(=O)n2[nH]c(NCc3ccc(CC)cc3)nc2n1 | -2.2
CCn1c(CO)nnc1C1CC(NC(=O)Cc2csc(C(C)=O)c2)C1 (configuration not stated) | -1.41
CC(C(=O)N1CCc2c(nc(-c3ccncc3)nc2N(C)C)C1)c1ccccc1 (configuration not stated) | -0.63

The final 2 entries of the section above are carried over, then new ones follow.
Compound | fixLJ activator
CCn1c(CO)nnc1C1CC(NC(=O)Cc2csc(C(C)=O)c2)C1 (configuration not stated) | -1.41
CC(C(=O)N1CCc2c(nc(-c3ccncc3)nc2N(C)C)C1)c1ccccc1 (configuration not stated) | -0.63
COc1ccc(CCNC(=O)CCCn2c(=O)c3ccccc3n(Cc3ccc(F)cc3Cl)c2=O)cc1OC | 0.29
CC(=O)c1cccc(NC(=O)CCCN2C(=O)COc3ccc(C)cc32)c1 | -0.26
Cc1cc(C(=O)N2CCCC(c3nc4ccccc4s3)C2)nc(C)n1 (configuration not stated) | -0.06
CCOc1ccc(-n2c(SCc3nc(-c4ccccc4C)no3)nnc2-c2ccccc2)cc1 | -1.51
CC(=O)c1ccc(NC(=O)NCCc2c[nH]c3ccccc23)cc1 | -0.53
COCCCNC(=O)CN1C(=O)COc2ccc(S(=O)(=O)N3CCCCCC3)cc21 | -0.93
Cn1c(=O)c2c(nc(NCCCCO)n2Cc2ccccc2Cl)n(C)c1=O | -1.31
Cc1ccc(S(=O)(=O)c2c(O)cc(C)c(NS(=O)(=O)c3ccc(Cl)cc3)c2C)cc1 | -0.44
Cc1ccccc1-c1nc(CN2CCN(CCCCO)CC2)c(C)o1 | -1.09
CCOc1ccc(-c2ccnc(NCC3CCNCC3)n2)cc1C(=O)O | 0.29
CC(C)(C)c1ccc(C(=O)NC2CCOCC2OCc2ccccn2)cc1 (configuration not stated) | 0.81
Cc1cc(S(=O)(=O)NC2COCC2Cc2ccncc2)c(C)cc1Cl (configuration not stated) | -0.27
Cc1ccccc1Cn1c2ccccc2c2cnn(CC(=O)NC(C)CCc3ccccc3)c(=O)c21 (configuration not stated) | -0.09
COc1ccc(CCn2c(=O)c3cccnc3n(CC(=O)Nc3cccc(C)c3)c2=O)cc1OC | -1.15
COc1ccc(CCNC(=O)CCCCn2c(=O)c3ccccc3n(CC(=O)Nc3ccc(C)cc3C)c2=O)cc1OC | -2.08

Next part.
Compound,fixLJ activator
COc1ccc(-c2cc(C(=O)OC(C)C(=O)c3ccccc3)c3cccc(Cl)c3n2)cc1 (configuration not stated),-0.66
O=C(c1cccc(-c2ncn[nH]2)c1)N(Cc1ccncc1)Cc1ccco1,-0.74
Cc1cccc(-n2c(SCC(N)=O)nc3c(oc4ccccc43)c2=O)c1,-0.48
CCC1CCCCN1CCCNC(=O)c1c(O)nc2cc(C)ccn2c1=O (configuration not stated),-0.17
O=C(NC1C2CCOC2C1C1CCCC1)c1ccncc1Cl (configuration not stated),0.23
CCOC(=O)N1CCc2c(sc3c2c(=O)n(CCc2ccccc2)c(=O)n3Cc2ccc(F)cc2)C1,1.01
CCOC(=O)c1c(NC(=O)c2cc(-c3ccc(OC)c(OC)c3)on2)sc2c1CCCC2,-1.29
Cc1ccc(C(=O)N(c2ccc(C)cc2)S(=O)(=O)c2ccc(Cl)cc2)cc1,-1.15
COc1ccc(C)cc1NC(=O)COc1cc(=O)n(C)c2ccccc12,-0.71
Cc1[nH]c2c(F)cccc2c1CC(=O)NCCCn1ncc2ccccc21,0.31

Look-ups from above.
In fixLJ activator, CCc1ccc2oc(C(=O)NCc3ccccc3)cc(=O)c2c1 has the entry -0.24
In fixLJ activator, COc1cccc(-c2cc(C(=O)NCCc3ccc(OC)c(OC)c3)no2)c1 has the entry 2.59
In fixLJ activator, COCCCNC(=O)CN1C(=O)COc2ccc(S(=O)(=O)N3CCCCCC3)cc21 has the entry -0.93
In fixLJ activator, COc1ccc(CCNC(=O)c2ccc(Cn3c(=O)c4ccccc4n(Cc4ccc(C)cc4)c3=O)cc2)cc1OC has the entry -1.71

Another view of 4 compounds above:
N#C/C(=C\c1ccc(-c2cccc(Cl)c2)o1)C(=O)Nc1cccc(C(F)(F)F)c1
  fixLJ activator: -3.3

CN1CCN(C2=Nc3cc(Cl)ccc3Nc3ccccc32)CC1
  fixLJ activator: -0.81&0.13

COc1ccccc1-c1nn(CCC(=O)Nc2cccc(C(C)=O)c2)c2nc(C)cc(C)c12
  fixLJ activator: -1.41

COc1ccc(NC(=O)C(NC(=O)/C=C\c2ccc3c(c2)OCO3)c2ccc(C)cc2)cc1 (configuration not stated)
  fixLJ activator: 1.39

Further records.
Compound,fixLJ activator
CN(Cc1c(C(=O)N2CCCCC2)nc2sccn12)CC1CCCO1 (configuration not stated),-0.47
CCCCCOc1c(Cl)cc(C(=O)N(Cc2ccc(C)o2)C2CCS(=O)(=O)C2)cc1Cl (configuration not stated),1.12
Cc1cc(NC(=O)c2cc(-c3ccc(F)cc3)on2)nn1Cc1ccc(Cl)cc1,-2.61
O=C1NCCN2CCN(C(=O)c3ccc(-n4ccnc4)cc3)CC12 (configuration not stated),1.04
Cc1ccccc1C(=O)NC(=O)Nc1ccc(-n2nc(C(F)(F)F)cc2C(F)(F)F)cc1,-4.1
CCN(CC)CCCNC(=O)c1cn(C)c2ccc(S(=O)(=O)N(C)C3CCCCC3)cc2c1=O,0.86
COc1ccc(N2C(=O)C(CC(=O)Nc3ccc(Cl)cc3)N(Cc3ccc4c(c3)OCO4)C2=O)cc1 (configuration not stated),-1.65
COc1ccc(N(C(=O)COc2ccc(Br)cc2)S(=O)(=O)c2ccc(C)cc2)cc1,0.75
O=C(Nc1c(C(=O)Nc2ccccc2F)oc2ccccc12)c1cc2ccccc2o1,-1.31
Cc1ccc(S(=O)(=O)N(CC(O)Cn2c3ccccc3c3ccccc32)c2cccc(C(N)=O)c2)cc1 (configuration not stated),-1.68
CCCOc1ccc(CCNC(=O)c2ccn3nnnc3c2)cc1OC,-0.38
CCN1CCN(CC(=O)NC(C)c2cnn(-c3ccccc3F)c2)CC1 (configuration not stated),-1.27
CN[C@@H]1[C@H](OC2[C@H](O[C@H]3[C@H](O)[C@@H](O)[C@H](N=C(N)N)[C@@H](O)[C@@H]3N=C(N)N)O[C@@H](C)[C@]2(O)C=O)O[C@@H](CO)[C@H](O)[C@H]1O (some centres not stated),0.18
Cc1ccc(-c2ccno2)cc1S(=O)(=O)N1CC[C@@]2(C(=O)O)CCCN(C)[C@@H]2C1,-1.28
Cn1cc(C(NC(=O)C2CCCCCC2)C2CC(O)C2)cn1 (configuration not stated),-0.53
Cc1c(Cl)cccc1NC(=O)c1noc2c1CCCC2,-0.43
COc1ccc(CNC(=O)c2cc3c(=O)[nH]c4ccccc4c3n2C)c(OC)c1,-0.18
Cn1cc(C(=O)NCCc2nc(N)cc(=O)[nH]2)c2ccccc21,1.54
Cc1c(C)c2cc3c(c(C)c2oc1=O)OCN(CCc1ccc(F)cc1)C3,-1.79
Cc1cccc(-c2nnc(SCC(=O)N3CCCCC3)o2)c1,-0.37
CCCCN(Cc1ccccc1)S(=O)(=O)c1cc(Br)cc2c1N(C(=O)C1CC1)CC2,-0.18
COc1ccc(Nc2ncnc3onc(-c4ccc(Cl)cc4)c23)cc1Cl,0.05
Cc1c(C(=O)OC2CCCCC2)[nH]c2c1C(=O)CC(c1ccccc1Cl)C2 (configuration not stated),-1.11
COc1ccc(-c2nn(-c3ccccc3C)cc2CN(C)CC(C)O)cc1F (configuration not stated),-1.07
COc1ccc(C)cc1NC(=O)C(Cc1ccccc1)NS(=O)(=O)c1ccc(Br)s1 (configuration not stated),1.7
NC(=O)N1c2ccccc2CC(=O)c2ccccc21,-1.52&-1.28
CCOc1ccc(NC(=O)c2ccc3snnc3c2)cc1,-1.75
CCc1nc2ccccc2n1CCC(=O)NCc1csc(N)n1,-1.19
COc1ccc(C2=Nc3ccc(OC(F)(F)F)cc3NC(c3cccnc3)=N2)cc1,-2.6
COc1cc(CNC(=O)N(C)C(C)Cc2cc(C)ccn2)cc(OC)c1OC (configuration not stated),-2.84
COc1cccc(NC(=O)c2csc3c2CCCCC3)c1,-1.6
Nc1ncnc2c1ncn2[C@@H]1O[C@H](CO)[C@@H](O)[C@@H]1O,-1.74&-2.77

Some of the compounds tested (hit frequency here may not be typical).
